High-throughput results deposited in PubChem by Southern Research Specialized Biocontainment Screening Center.
Mtb bLac sens: beta-lactam sensitization of Mtb H37Rv. M. tuberculosis H37Rv growth with meropenem, percent inhibition; hits of this screen are not shown here. inhibition, % at 25 µM. 330,000 compounds, 0.27% hits. AID 434955;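 active means about 74% or more and at least 40 points above the plate without the antibiotic, then above 30% in a dose series; inconclusive means first-round hits that could not be retested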;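 further: growth measured after seven days incubation then overnight dye step; 0% = bacteria only wells and 100% = bacteria with antibiotic; twin plates without the antibiotic show which effects depend on it; some results filed as inactive read as strong as hits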
* marks the source's active call; other numbers are inactive results; ? = inconclusive.

molecule	Mtb bLac sens
O=C(COC(=O)Cn1[nH]c(=O)c2ccccc2c1=O)Nc1c(Cl)cccc1C(F)(F)F	4
O=C(Nc1ccc2ncccc2c1)c1ccccc1	-5
CC1CCCC(NC(=O)COC(=O)/C=C/c2ccc([N+](=O)[O-])cc2)C1C (stereo not drawn)	17
CCN(CC(=O)NCc1cccs1)C(=O)c1cc(Br)ccc1O	2
CN(C(=O)CSc1ncn[nH]1)C1(C#N)CCCCC1	-2
CCCNC(=O)N1[C@H]2CC[C@@H]1C(C(=O)OC)=C(c1ccc(OC(F)(F)F)cc1)C2	0
C[C@H](CO)N1C[C@H](C)[C@@H](CN(C)C(=O)NC2CCCCC2)Oc2ccc(NC(=O)C3CCCCC3)cc2C1=O	0
O=C(c1cnn(C(=O)c2ccco2)c1)c1cc(F)ccc1O	-4
CC[C@](C)(O)c1cc2ccccc2c(=O)o1	-6
Cc1ccc(C)c(OCC(=O)NC2CCCCCC2)c1	?
COc1ccccc1NC(=O)COC(=O)c1ccc(N2CCCC2=O)cc1	6
O=C(CSc1nnc2ccccn12)NNC(=O)c1cccc([N+](=O)[O-])c1	48
COc1c2c(cc3oc(CO[C@@H]4O[C@H](CO)[C@@H](O)[C@H](O)[C@H]4O)cc(=O)c13)O[C@H](C(C)(C)O)C2	5
COc1ccc(-c2oc(=O)c3cc(OC)c(OC)cc3c2C#CCCCO)cc1	5
Cc1ccc(SCC(=O)OCC(=O)N(CCC#N)c2ccccc2)cc1	1
Cc1ccc(OCCNC(=O)c2ccccc2OCc2c(C)noc2C)cc1	1
COCC(C)n1c(SCC(=O)NC(=O)NC2CCCC2)nc2ccccc2c1=O (stereo not drawn)	-2
CN(CCOc1ccc(Cl)cc1)C(=O)c1cc(S(=O)(=O)N2CCOCC2)ccc1N1CCCC1	4
CCCCNc1c(-c2ccc(OC)c(SC(C)CC)c2)nc2ccc(C)cn12 (stereo not drawn)	97
N#Cc1ccc(CN2CCN(C(=O)c3ccc(S(=O)(=O)NCc4ccco4)cc3)CC2)cc1	3
Cc1cccc(NC(=O)CN(C)C(=O)C2CC2)c1C	-4
CC1CCC2(CC1)NC(=O)N(CC(=O)Nc1cccc(C#N)c1)C2=O (stereo not drawn)	-6
Cc1ccc(S(=O)(=O)N2CCCCC2)cc1C(=O)NCc1ccncc1	1
CC1(C)S[C@@H]2[C@H](NC(=O)[C@H](N)c3ccccc3)C(=O)N2[C@H]1C(=O)OC1OC(=O)c2ccccc21 (stereo partly drawn)	-7
Cc1ccnc(Nc2nc(-c3ccc(O)cc3O)cs2)c1	0
C[C@H](CO)N1C[C@H](C)[C@@H](CN(C)S(=O)(=O)c2cn(C)cn2)Oc2ccc(NC(=O)C3CC3)cc2C1=O	3
CC(C)C[C@H](NC(=O)c1nc[nH]c1C(=O)NCCCCCN)C(=O)OCc1ccccc1	-6
CC(C)C(NC(=O)Nc1ccccc1)C(=O)Nc1cccc(S(=O)(=O)N(C)C)c1 (stereo not drawn)	-5
C=CC[C@@H](CC(=O)N[C@H](CO)Cc1ccccc1)C(=O)N[C@H](COC(=O)[C@@H](CC=C)Cc1ccc(F)cc1)Cc1c[nH]c2ccccc12	-10
CCc1ccccc1NC(=O)COC(=O)c1c(C)nsc1NC	1
Oc1cc(Cl)cc(Cl)c1Cl	-5
CCN(CC)c1ccc(C=Nc2cccc(S(=O)(=O)N3CCOCC3)c2)c(O)c1	-4
Cc1ccc(F)c(Cn2cnc3c(cnn3C(C)(C)C)c2=O)c1Cl	2
COc1cc(C(=O)COC(=O)c2cc([N+](=O)[O-])ccc2N2CCOCC2)ccc1OC(F)F	1
CC(=O)N1CCN(CC(C)(C)NS(=O)(=O)c2ccccc2)CC1	-5
COc1ccc(-c2ccc3c(c2)c(-c2cccs2)c(-c2cc(OC)cc(OC)c2)n3C)cc1	2
O=C(O)CCC(=O)OCc1c(-c2ccccc2)ncc2ccccc12	-2
CN(Cc1ccccc1)C(=O)c1ccc2c(c1)S(=O)(=O)N=C1CCCCCN12	3
CCNc1ccc(C(=O)OCC(=O)Nc2cc(C)on2)cc1[N+](=O)[O-]	1
CCCCN1C(=O)C(=O)N(CC(=O)Nc2ccc(OC(F)(F)F)cc2)C1=O	-7
CCOC(=O)N1CCN(C(=O)COC(=O)c2cccc(C)c2[N+](=O)[O-])CC1	-2
Cc1cc(C(=O)COC(=O)c2ccc(O)cc2O)c(C)n1C(C)C	67
Cc1ccc(-c2csc(NC(=O)C3CSC4(C)CCC(=O)N34)n2)cc1 (stereo not drawn)	0
O=C(CNS(=O)(=O)c1ccccc1)OCC(=O)c1ccc(F)cc1	0
O=C(CN1C(=O)C2CC=CCC2C1=O)Nc1nc(-c2ccc(F)c(F)c2)cs1 (stereo not drawn)	4
O=C(NCc1ccco1)c1ccc(S(=O)(=O)N2CCCCCC2)cc1	-5
C=CC(=O)Nc1ccc(N(C)c2ccnc(Nc3ccc(N4CCN(C)CC4)cc3)n2)cc1	3
Oc1cc(NCCc2cccnc2)cc2cccnc12	11
CC1CCCC(NC(=O)Cn2c(Cl)nc3c2c(=O)n(C)c(=O)n3C)C1C (stereo not drawn)	-6
C[C@H](CO)N1C[C@H](C)[C@@H](CN(C)Cc2ccccc2)Oc2c(NC(=O)c3ccncc3)cccc2C1=O	4
COc1ccc(NS(=O)(=O)c2cc(NC(=O)c3ccc(=O)[nH]n3)ccc2C)cc1	1
COc1ccc(C(=O)Nc2ccncc2)cc1S(=O)(=O)N1CCOCC1	-3
CC(=O)c1ccc(NC(=O)CN2C(=O)NC(C)(C3CCCCC3)C2=O)cc1 (stereo not drawn)	0
Cc1cc(NC(=O)CSc2cc(C)c3ccccc3n2)no1	-2
Cc1cccc(C(=O)NCC(=O)OCC(=O)N2CCN(S(=O)(=O)c3ccc(C)cc3C)CC2)c1	-2
CC(=O)Nc1ccc(SC[C@H](Cc2ccccc2)N2CC[C@@H](O)CCC2=O)cc1	4
O=C(NCCc1ccc(F)cc1)Nc1ccccc1	-4
CC(C)C(NC(=O)c1c(F)cccc1F)C(=O)NCc1ccc(S(=O)(=O)N2CCOCC2)cc1 (stereo not drawn)	-8
COc1cc2c3cc1Oc1c(OC)c(OC)cc4c1[C@H](Cc1ccc(cc1)Oc1cc(ccc1O)C[C@H]3N(C)CC2)N(C)CC4	3
O=C(CN1C(=O)C(=O)N(C2CCCC2)C1=O)Nc1cc(Cl)ccc1[N+](=O)[O-]	0

An excerpt from above in order of SMILES length, rising:
molecule	Mtb bLac sens
Cc1cc(C(=O)COC(=O)c2ccc(O)cc2O)c(C)n1C(C)C	67
CCNc1ccc(C(=O)OCC(=O)Nc2cc(C)on2)cc1[N+](=O)[O-]	1
O=C(CN1C(=O)C2CC=CCC2C1=O)Nc1nc(-c2ccc(F)c(F)c2)cs1 (stereo not drawn)	4
CCOC(=O)N1CCN(C(=O)COC(=O)c2cccc(C)c2[N+](=O)[O-])CC1	-2

The main list resumes; the 6 compounds before the break are reprinted first.
smiles	Mtb bLac sens
Cc1cccc(C(=O)NCC(=O)OCC(=O)N2CCN(S(=O)(=O)c3ccc(C)cc3C)CC2)c1	-2
CC(=O)Nc1ccc(SC[C@H](Cc2ccccc2)N2CC[C@@H](O)CCC2=O)cc1	4
O=C(NCCc1ccc(F)cc1)Nc1ccccc1	-4
CC(C)C(NC(=O)c1c(F)cccc1F)C(=O)NCc1ccc(S(=O)(=O)N2CCOCC2)cc1 (stereo not drawn)	-8
COc1cc2c3cc1Oc1c(OC)c(OC)cc4c1[C@H](Cc1ccc(cc1)Oc1cc(ccc1O)C[C@H]3N(C)CC2)N(C)CC4	3
O=C(CN1C(=O)C(=O)N(C2CCCC2)C1=O)Nc1cc(Cl)ccc1[N+](=O)[O-]	0
Cc1ccc(S(=O)(=O)CCC(=O)NNC(=O)CN(C)S(=O)(=O)c2ccc(C)cc2)cc1	4
CCOC(=O)N1CCC(NCCNC(=O)c2cccc(F)c2)CC1	-1
CC1(C)CC(=O)C/C(=N/NC(=O)COc2ccc3ccccc3c2Br)C1	-4
CCCCN1C(=N)N([C@@H](CCC)CN2CCC[C@H]2CN2C(N)=NC[C@@H]2Cc2ccccc2)C[C@H]1Cc1ccccc1	98
COc1ccc(S(=O)(=O)N2CCOCC2)cc1C(=O)NCC(c1ccco1)N1CCCC1 (stereo not drawn)	-3
CC(C)(C)OC(=O)NCCCCCNC(=O)c1nc[nH]c1C(=O)N1CCc2ccccc2C1	-10
CC[C@@]1(C(=O)OC)N[C@H](CN(C)C(=O)Nc2ccc(C(F)(F)F)cc2)[C@@H]2C(=O)N(Cc3ccccc3)C(=O)[C@@H]21	-5
Cc1nc2nc(SCC(=O)NCCCN3CCCCCC3)nn2c(C)c1Cc1ccccc1	-3
CC(=O)c1c(C)[nH]c(C(=O)OCC(=O)NCc2ccc3c(c2)OCO3)c1C	-4
Cc1ccc(S(=O)(=O)CCC(=O)OC2CC(C)OC2=O)cc1 (stereo not drawn)	2
Cc1cccc(C(=O)O[C@H]2[C@H](Cc3ccccc3)NS(=O)(=O)[C@H]3CC4C=C[C@]23O4)c1	-3
COc1ccccc1-c1oc2ccccc2c1C#CC(C)(C)O	?
O=C(NN1C(=O)NC2(CCCCC2)C1=O)c1cc2ccccc2o1	-6
CCc1nnc(NC(=O)c2ccc(OC)c(S(=O)(=O)N3CCCC3)c2)s1	-3
Cc1cccc(NC(=S)NC(=O)C2CC2)c1	?
COc1cc(OC)cc(-c2c(-c3cccs3)c3cc(Br)ccc3n2C)c1	18
COc1ccc(Cl)cc1NC(=O)CN(C)C1CCS(=O)(=O)C1 (stereo not drawn)	-7
O=C(OCC(=O)N1CCCCCC1)c1cccc(Cl)c1	10
C=CCNC(=O)Cc1ccc(S(=O)(=O)N2CCOCC2)s1	3
Cc1ccc(OCC(=O)Nc2cccc3ccccc23)c([N+](=O)[O-])n1	-5
C=CCNc1nc(C(=O)OC(C)C(=O)c2ccc(C)cc2)cs1 (stereo not drawn)	-2
COc1ccc(OC)c(C(=O)CN2C(=O)C(=O)N(C3CCCC3)C2=O)c1	-6
CCC(C)(C)C1CCC2(CC1)NC(=O)N(CC(=O)N(C)Cc1ccc3c(c1)OCCO3)C2=O (stereo not drawn)	8
CC(NC(=O)[C@H](C)N1C(=O)N2CCc3c([nH]c4ccccc34)[C@@]2(C)C1=O)c1ccccc1 (stereo partly drawn)	-9
Nc1ccc(-c2cc3ccccc3c(=O)o2)cc1	-8
N#CC1(NC(=O)Cn2ncc(Cl)c(Cl)c2=O)CCCCC1	74
C[C@H](CO)N1C[C@H](C)[C@@H](CN(C)S(=O)(=O)c2ccccc2)Oc2ccc(NC(=O)Cc3ccccc3)cc2C1=O	-1
Cc1cc(C(=O)OCC(=O)N2C(C)CCCC2C)c2ccccc2n1 (stereo not drawn)	-3
CC(C)Oc1ccc(S(=O)(=O)N2CCCCC2)cc1NC(=O)CN1C(=O)NC(C)(C2CC2)C1=O (stereo not drawn)	-2
CC1CN(C(=O)c2ccc(Cl)c(S(=O)(=O)NCc3ccco3)c2)CC(C)O1 (stereo not drawn)	-2
CN(CC(=O)Nc1ccc(Cl)cc1F)C1=NS(=O)(=O)c2ccccc21	-4
CC(=O)NC12CC3CC(C1)CC(C(=O)OCC(=O)c1cc(C)n(C)c1C)(C3)C2	5
COc1ccccc1-c1oc2ccccc2c1C#CC1(N)CCCCC1	100
CCOC(=O)[C@@H]1[C@H]2COc3ccc(Br)cc3[C@H]2N2C(=O)N(c3ccc(Cl)cc3)C(=O)[C@]12C	-6
CCC/C(=C1/c2ccccc2C(=O)N1c1ccccc1)c1cnc(OC)nc1	-3
COCc1c(C(=O)OCC(=O)N(C)C2CCS(=O)(=O)C2)oc2ccccc12 (stereo not drawn)	-1
C[C@H]1CN([C@@H](C)CO)C(=O)c2cccc(NC(=O)C3CC3)c2O[C@H]1CN(C)C(=O)Nc1ccc2c(c1)OCO2	-6
Cc1cc(C)cc(C(=O)N(Cc2ccco2)c2c(N)n(Cc3ccccc3)c(=O)[nH]c2=O)c1	1
N#Cc1ccccc1N1CCN(C(=O)c2ccc(NC(=O)c3ccc(Br)o3)cc2)CC1	-6
COc1cc2ccccc2cc1C(=O)NC1CCCCC1	67
O=C(CNC(=O)c1ccc(Br)o1)NNC(=O)c1ccccc1O	1
Cc1ccc(NS(=O)(=O)c2ccc(C(=O)OCC(=O)N3CCCCC3)cc2)cc1	5
COc1ccc(N(CC(=O)Nc2cccc3ccccc23)S(C)(=O)=O)c(OC)c1	-9
CCCNC(=O)C(Cc1ccc(I)cc1)NC(=O)c1ccc(C#N)cc1 (stereo not drawn)	1
CCOc1ncccc1C(=O)OCC(=O)NC1CCCCC1	-1
C#CCOCCOCCOCCNc1nc(N2CCN(C(=O)CCCCCCCCCCNC(=O)Cn3cc(C[C@@H](C)O)nn3)CC2)nc(N2CCN(C(=O)CCCCCCCCCCNC(=O)[C@H](CO)n3cc(CCCSC)nn3)CC2)n1	6
COc1ccc(C(=O)COC(=O)CN2C(=O)NC3(CC(C)CC(C)(C)C3)C2=O)c(OC)c1 (stereo not drawn)	-6
COc1cc(OC)cc(-c2c(C#Cc3ccsc3)c3cc(-c4cc(F)cc(F)c4)ccc3n2C)c1	2
Cc1cc(C(=O)N(Cc2nnc(-c3ccc(Cl)cc3)o2)C(C)C)c2ccccc2n1	-7
COc1ccc(-c2sc3ccc(OC)cc3c2C#Cc2ccccn2)cc1	73
Cc1cc(C(=O)OCC(=O)N(C)c2ccccc2)c(C)o1	6

The list is partial (hit frequency here may not be typical).
